NS1 inh = blocks influenza NS1 protein function; S. cerevisiae slowed by influenza A NS1, growth recovery by OD600; Potency, µM (top dose mostly 46.1 µM), inactives show top-dose activity, positive = more growth; 270,000 compounds, 0.4% hits; active means well fitted rising curve with a large enough effect; inconclusive means small, poorly fitted or top-dose-only effect; inactive means no such curve, though single readings can be large or run the other way; further: nearly all actives have a fitted effect of over 50% in size
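S. cerevisiae expressing influenza A NS1, grown in glucose, washed, then diluted 1:100 into pH 6.0 -URA galactose medium with 23 nl compound. Growth recovery read as OD600; NS1-free strain serves as control.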
Cruzain inh Det = blocks cruzain activity in presence of Triton detergent; purified cruzain, Z-FR-AMC fluorescence, 0.01% Triton; Potency, µM, for the others: max response, negative = inhibition, actives largely listed as inhibitors; 200,000 compounds, 0.43% hits; AID 1478;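 further: plate controls were neutral wells for no effect and buffer without enzyme for full effect; nearly all actives have a fitted effect of over 40% in size; top concentration of the series not given in the record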
Target sequence (P25779 123-467 limits assumed): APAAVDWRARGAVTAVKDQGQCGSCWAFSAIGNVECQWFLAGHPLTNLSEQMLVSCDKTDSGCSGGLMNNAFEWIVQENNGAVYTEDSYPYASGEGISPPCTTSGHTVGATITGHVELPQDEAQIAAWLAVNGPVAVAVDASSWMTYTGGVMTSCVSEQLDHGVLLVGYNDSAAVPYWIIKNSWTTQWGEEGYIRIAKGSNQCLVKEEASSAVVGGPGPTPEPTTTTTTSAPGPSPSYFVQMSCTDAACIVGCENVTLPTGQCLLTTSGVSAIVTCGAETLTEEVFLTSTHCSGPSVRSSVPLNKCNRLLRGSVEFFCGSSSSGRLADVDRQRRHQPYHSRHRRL
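15 min RT preincubation of 1.5 nM cruzain with compound, then 2 uM Z-FR-AMC added; kinetic AMC fluorescence, 60 s delta. Triton X-100 0.01%, pH 5.5.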
SARS PLP yeast = inhibitors of SARS-CoV papain-like protease in yeast | S. cerevisiae expressing SARS-CoV PLpro, growth rescue; control for the full effect not named in the record | Potency, µM (highest dose often 32.9 µM), inactives show at the highest dose activity, positive = growth rescue | 330,000 compounds, 0.19% hits; active means well fitted rising curve with a large enough effect; inconclusive means small, poorly fitted or top-dose-only effect; inactive means no such curve, though single readings can be large or run the other way; further: 0% is about no effect; nearly all actives have a fitted effect of over 55% in size; growth read by luminescence after 48 h
RE007 growth inh = less growth of the S. pombe RE007 Vpr strain; S. pombe RE007 Vpr strain, BacTiter-Glo ATP luminescence, 24 h; control for the full effect not named in the record; 360,000 compounds, 0.21% hits; Potency, µM (highest dose often 92.2 µM), for the others: top-dose activity change, negative = less growth; active = well fitted falling curve with a large enough effect; inconclusive = small, poorly fitted or top-dose-only effect; inactive = no such curve, though single readings can be large or run the other way;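 further: on the % scale 0 is the no-effect control and ±100 the full control effect; nearly all actives have a fitted effect of over 50% in size; the assay follows cell death caused by Vpr and the record does not say whether a fall means rescue or toxicity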
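Fission yeast RE007 carrying one integrated HIV-1 vpr copy, seeded at OD 0.01 in PMG+AL medium with 23 nL pinned compound. Grown 24 h at 30 degrees; viability read by BacTiter-Glo luminescence after 5 min.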
Marburg entry inh = blocks Marburg virus binding to or entry into cells | Marburg virus pseudotyped entry inhibition, cell reporter; control for the full effect not named in the record; about a third of the inactives were read at about 46 µM | Potency, µM (titrated, usually from 37.8 µM), for inactives: top-dose activity change, negative = inhibition, hits mostly inhibitors | 300,000 compounds, 1.8% hits | AID 540276; active = well fitted inhibition curve with a large enough effect; inconclusive = small, poorly fitted or top-dose-only effect, or effect the other way; inactive = flat fitted curve, though single readings scatter; tested in HEK293 cells; about a fifth of its hits are not listed in these tables; further: on the % scale 0 is the no-effect control and ±100 the full control effect; luciferase read-out
Cruzain noTriton = blocks cruzain activity in detergent-free assay | P25779 | purified cruzain, Z-FR-AMC fluorescence, no detergent | Potency, µM, for inactives: max response, negative = inhibition, actives largely listed as inhibitors | 200,000 compounds, 2.3% hits | AID 1476;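 further: plate controls were enzyme without inhibitor for no effect and buffer without enzyme for full effect; nearly all actives have a fitted effect of over 40% in size; top concentration of the series not given in the record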
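Purified cruzain at 1.5 nM, pre-incubated 15 min with compound at room temperature in 100 mM sodium acetate pH 5.5, 5 mM DTT, 0.00005% Triton X-100. Reaction started with 2 uM Z-FR-AMC; AMC fluorescence increase over 60 s gives rate.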
StopGo reporter = FMDV 2A StopGo reporter, luciferase signal; human cells with a luciferase reporter of 2A StopGo recoding; control for the full effect not named in the record; Potency, µM (titrated, usually from 57.9 µM), for the others: at the highest dose signal change, negative = less light; 410,000 compounds, 1.2% hits; active = well fitted falling curve with a large enough effect; inconclusive = small, poorly fitted or top-dose-only effect; inactive = no such curve, though single readings can be large or run the other way; tested in HEK293T cells; further: on the % scale 0 is the no-effect control and ±100 the full control effect; nearly all actives have a fitted effect of over 45% in size; luciferase light after 4 h
Lassa entry inh = inhibitors of Lassa virus binding or cell entry. 300,000 compounds, 1.2% hits. Potency, µM (highest dose often 37.9 µM), without a hit: at the top dose activity change, negative = inhibition, most hits filed as inhibitors. Lassa virus pseudotype entry inhibition, cell reporter; control for the full effect not named in the record; active means well fitted inhibition curve with a large enough effect; inconclusive means small, poorly fitted or top-dose-only effect, or effect the other way; inactive means flat fitted curve, though single readings scatter; tested in HEK293 cells; further: on the % scale 0 is the no-effect control and ±100 the full control effect; nearly all actives have a fitted effect of over 50% in size; luciferase read-out
The depositor's hits bear a star; ? = inconclusive; . = not tested or not shown; & = joins results of further samples; [ ] = another dose, or the depositor's remark. Unless noted, the call rests on the fitted dose curve; in most records, active means well fitted curve in the direction sought with a large enough effect; inconclusive means small, poorly fitted or top-dose-only effect, or another doubt; inactive means no such curve, though single readings can be large; an effect the other way counts as inactive or inconclusive. Potency means the concentration at half of the fitted maximal effect.

compound	NS1 inh	Cruzain inh Det	SARS PLP yeast	RE007 growth inh	Marburg entry inh	Cruzain noTriton	StopGo reporter	Lassa entry inh
COc1ccc(Nc2ncnc3c2cnn3Cc2ccccc2)cc1	-56.7%	-3.9%	-10.5%	5.6%	-22.8%	-4.5%	.	?
CC(=O)c1ccc(OC(=O)c2ccc(-n3nc(C)cc3C)cc2)cc1	-4.1%	.	-2.9%	-3.0%	?	.	3.6%	-16.6%
N/C(=N\O)c1ccc(NC(=O)c2cccs2)cc1	-23.8%	1.2%	-7.9%	-3.2%	?	-12.3%	27.5%	27.5%
COc1ccc(NC(=O)C2(N(C(=O)Cn3nnnc3N)c3ccc(OC)cc3)CCCCC2)cc1	-8.8%	.	1.0%	7.3%	.	.	7.8%	.
Cc1cc(NC(=O)Nc2cccc(Cl)c2)n(-c2ccccc2)n1	-6.1%	.	0.8%	4.4%	-21.4%[46.1 µM]	.	-11.6%	-18.6%[46.1 µM]
Cc1cc[n+]2c3c(cccc13)CCC2	-1.1%	0.4%	6.1%	-19.5%	8.8%	0.6%	1.9%	0.5%
Cc1ccc(-n2nc(C(=O)Nc3ccc(Cl)cn3)c3c4ccccc4n(C)c3c2=O)cc1	.	-0.2%	.	.	-11.0%[46.1 µM]	-2.1%	16.9%	-3.7%[46.1 µM]
COCCOc1ccc(C(F)(F)F)cc1NC(=O)COC(=O)c1cc([N+](=O)[O-])ccc1N1CCOCC1	-2.3%	.	2.8%	1.9%	12.6µM*	.	-13.4%	?

Compounds from the list above containing a Cl atom, in the order listed:
compound	NS1 inh	Cruzain inh Det	SARS PLP yeast	RE007 growth inh	Marburg entry inh	Cruzain noTriton	StopGo reporter	Lassa entry inh
Cc1cc(NC(=O)Nc2cccc(Cl)c2)n(-c2ccccc2)n1	-6.1%	.	0.8%	4.4%	-21.4%[46.1 µM]	.	-11.6%	-18.6%[46.1 µM]
Cc1ccc(-n2nc(C(=O)Nc3ccc(Cl)cn3)c3c4ccccc4n(C)c3c2=O)cc1	.	-0.2%	.	.	-11.0%[46.1 µM]	-2.1%	16.9%	-3.7%[46.1 µM]

Carrying on:
compound	NS1 inh	Cruzain inh Det	SARS PLP yeast	RE007 growth inh	Marburg entry inh	Cruzain noTriton	StopGo reporter	Lassa entry inh
C/C(=N/NC(=O)CNC(=O)Cc1ccccc1)c1ccco1	9.3%	-1.3%	17.1%	3.4%	?	-7.0%	4.4%	-11.3%
Cc1cc(C)cc(NC(=O)CSc2oc(-c3cccs3)nc2S(=O)(=O)c2ccc(Br)cc2)c1	.	-1.1%	.	.	3.7%[46.1 µM]	-1.5%	?	8.3%[46.1 µM]
CC(=O)C1(c2ccccc2)CCN(C(=O)C2CCC(=O)N(CCc3cccc(F)c3)C2)CC1 (stereo not drawn)	-2.2%	.	-2.3%	-15.3%	18.8%	.	?	-9.1%
Cc1ccc(S(=O)(=O)N2CCN(C(=O)C3CCN(C(=O)c4ccc(F)cc4)CC3)CC2)c(C)c1	.	.	-0.5%	-0.4%	?	.	?	?
CCn1c(O)c(N=NC(=O)c2cccs2)c2ccccc21	.	.	0.1%	-1.5%	?	.	35.9%[activator]	-27.4%
O=C(CN1C(=O)NC(c2ccccc2)(c2ccccc2)C1=O)NCc1ccco1	.	.	-24.1%	0.3%	?	.	-3.1%	?
Cc1cc(SCC(=O)c2ccc3c(c2)OCO3)nc2ccccc12	-2.4%	1.1%	-4.7%	0.3%	23.4%	-21.0%	44.7%[activator]	-3.4%
CCCNC(=O)CCc1c(C)nc2nc(CNC(=O)c3ccccc3)nn2c1C	.	-3.4%	.	.	-21.7%[46.1 µM]	11.7%	13.5%	2.8%[46.1 µM]
C=CCN(CC=C)Cc1c(O)ccc2c(=O)c(-c3ccccc3)coc12	-0.4%	.	-3.9%	1.4%	-6.5%[46.1 µM]	.	21.2%	?
CCC(C)c1ccccc1OCC(=O)NN1C(=O)c2ccccc2C1=O (stereo not drawn)	-13.6%	.	-3.9%	-6.1%	?	.	-11.1%	-11.0%[46.1 µM]
O=C(O)c1ccc(NC(CSCc2ccccc2F)C(=O)O)c([N+](=O)[O-])c1 (stereo not drawn)	14.8%	-6.7%	-1.7%	-4.3%	23.2%	-11.2%	8.8%	6.2%
CN(CC(=O)Nc1ccccc1Br)C(=O)c1cc(S(=O)(=O)N(C)C)ccc1N1CCCC1	.	.	.	2.5%	0.5%	.	-11.5%	-5.2%
CCC(C)C1(CC)C(=O)NC(=O)N=C1N (stereo not drawn)	1.4%	-0.2%	-6.4%	-4.1%	.	8.9%	-4.2%	.
Cc1cc(C)cc(-n2ccn(CC(=O)NCCc3ccccc3)c(=O)c2=O)c1	1.2%	-3.6%	2.3%	18.4%	17.5%[46.1 µM]	-6.8%	7.8%&-6.7%	13.9%&3.0%[46.1 µM]
COc1ccc(OC)c(NC(=O)Cn2c(=O)n(-c3cccc(C)c3)c(=O)c3c2c2cc(C)ccc2n3C)c1	.	0.4%	.	.	?	2.3%	-15.1%	1.2%[46.1 µM]
CCCCCSc1nnc2c(n1)OC(CC)Nc1ccc(Br)cc1-2 (stereo not drawn)	.	-8.6%	.	.	17.9%[46.1 µM]	4.0%	-27.4%	29.4%[46.1 µM]
CCN(CC(=O)Nc1cc(Cl)ccc1C)C(=O)Cn1c(=O)cnc2ccccc21	.	.	0.5%	-3.5%	?	.	-2.5%	?
C[n+]1c2n(c3ccccc31)N=C(c1ccc(Cl)cc1)CS2	-25.7%	-10.6%	-28.9%	?	?	-17.6%	?	?
O=C(O)c1sc2ncccc2c1OCc1ccccc1	3.0%	.	0.0%	4.7%	9.6%[46.1 µM]	.	-10.4%	1.9%[46.1 µM]
O=C(COc1ccccc1[N+](=O)[O-])N/N=C/c1ccc(O)c([N+](=O)[O-])c1	.	.	-1.3%	-26.3%	0.2%[46.1 µM]	.	-2.1%	19.3%[46.1 µM]
Cc1ccnc(SCc2cc(=O)c(OC(=O)c3ccc(Cl)c([N+](=O)[O-])c3)co2)n1	-8.6%	-4.9%	4.2%	-14.4%	6.1%	3.4%	-17.9%	6.2%
Cn1nccc1-c1cc(Cl)cc(Cl)c1O	-8.7%	.	-2.1%	?	-0.2%[46.1 µM]	.	-8.9%	0.6%
CCCCNC(=O)C1CCCN(S(=O)(=O)CC)C1 (stereo not drawn)	.	.	-5.6%	-5.7%	3.2%	.	-3.7%	-0.2%
CCOC(=O)CCn1nc(C)c2c(C)n(-c3ccccc3)nc2c1=O	.	-3.7%	.	.	-4.2%[46.1 µM]	6.0%	-11.5%	9.1%[46.1 µM]
COC(=O)COc1ccc(S(=O)(=O)NCc2ccco2)cc1	1.0%	7.9%	-1.3%	1.1%	13.5%	-1.2%	.	?
CCN(CC(=O)NC(C)C)C(=O)c1cc(S(=O)(=O)N2CCCCC2)ccc1N1CCCCC1	.	.	-15.7%	-1.6%	11.3%[46.1 µM]	.	12.1%	5.2%[46.1 µM]
BrC(=C\c1ccccc1)/C=N/n1cnnc1	-0.9%	.	-7.5%	-6.0%	.	.	?	.
CC(C)CC(O)(c1ccccc1)C(CN1CCOCC1)c1ccccc1 (stereo not drawn)	-3.3%	.	-1.3%	0.6%	-9.5%[46.1 µM]	.	-22.9%	-5.4%[46.1 µM]
CCOc1ccccc1NC(=O)C1CCN(S(=O)(=O)c2cccc3nonc23)CC1	.	-0.5%	.	.	.	5.9%	-20.0%	-2.8%[46.1 µM]
O=C(Cn1nc(-c2ccccc2)nc1-c1ccccc1)OC1CCCCC1	-53.5%	-6.4%	-17.8%	-8.5%	0.6%	14.8%	-20.5%	-11.3%
Cc1nn(-c2ccccc2)nc1CNS(C)(=O)=O	3.6%	.	0.9%	-4.6%	12.5%[14.2 µM]	.	22.3%	5.2%
Cc1ccccc1-c1nc2c3ccccc3nc(=S)n2[nH]1	0.6%	.	0.6%	-2.3%	.	.	15.7%	.
O=C(/C=C/c1ccccc1)CC(=O)c1ccccc1	.	.	.	-10.1%	11.3%	.	-53.6%	?
CC(=O)Nc1nnc(SCC(=O)NC2CC2)s1	5.4%	.	-7.6%	8.1%	13.3%[46.1 µM]	.	-8.7%	1.9%
CCN(CC(=O)Nc1ccccc1C(F)(F)F)C(=O)CSCc1c(C)noc1C	.	.	4.1%	-15.3%	-2.7%	.	-17.1%	4.1%
CCOCCN1CCN(C2c3ccccc3CSc3ccccc32)CC1 (stereo not drawn)	.	.	.	14.9%	12.6µM*	.	-24.3%	?
O=C(NC(=S)Nc1cccc2ncccc12)c1ccco1	0.2%	.	0.4%	-4.4%	.	.	-6.6%	.
CCSCCOC(=O)C1=C(C)NC(=O)NC1c1ccccc1 (stereo not drawn)	5.5%	0.2%	6.6%	7.3%	.	7.9%	-27.7%	.
COc1ccc(NC(=O)C2CCN(Cc3cnn(-c4ccccc4)c3-n3cccc3)CC2)cc1OC	-2.0%	6.5%	.	-0.9%	?	12.4%	?	-4.2%
O=C1CCC(C(=O)Nc2ccc(Cl)cc2)N1 (stereo not drawn)	5.9%	.	0.7%	-7.4%	12.5%	.	-6.7%	2.9%
COc1cccc(NC(=O)COC(=O)Cc2ccccc2[N+](=O)[O-])c1	.	.	-3.7%	0.6%	4.4%	.	10.2%	?
Clc1ccc(SCCCCN2CCOCC2)cc1	-13.0%	-0.4%	-33.5%	-1.4%	-8.3%	11.1%	0.0%	-3.7%
COC(=O)c1ccc(OC)c(-c2c(OC)cc(OC)cc2OC)c1	0.7%	-2.8%	6.1%	9.8%	?	10.1%	0.8%	-2.7%

Screens from PubChem BioAssay.
